# Bioassay records as filed in PubChem.
# Sa RN4220 lethal: growth inhibition of S. aureus RN4220, primary screen, OD600; 16 h; inhibition, % (concentration not given with the values); actives 0.33% (n = 330,000); AID 1259311, 2017;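 active = z-score of -3 or lower and OD600 up to 0.18 on both plates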;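 note: plate controls were untreated cells for no effect and reference antibiotic for full effect; stock transfer was 100 nL into about 80 µL; one replicate is shown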
# BJeLR lethal: MLPCN primary cell-based screen for lethality selective to Ras in HRASV12 cells | BJeLR (HRASV12) viability, CellTiter-Glo ATP luminescence, 48 h; reference of the scale not given here | inhibition, % (concentration not given with the values) | AID 1554, 2009 | actives 0.17% (n = 300,000);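 active = replicate mean above 50%; inconclusive = above 50% but judged a plate artefact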;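 note: 50 nL library stock added to about 25 µL; numbers are from one replicate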
# Autofluor counter: counter-screen for toxin protease inhibitors: compound fluorescence. fluorescence intensity (test concentration not listed). compound autofluorescence counterscreen, microsphere flow cytometry; stronger effect = higher value. actives 3.1% (n = 360,000);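 active = at least 3 SD above the mean of all compounds, about 16000 in these data; inconclusive = too few beads counted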;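 note: 100 nL of 1 mM stock went into each well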
# PrP UTR inh: inhibition of PrP 5' UTR reporter expression; cell-based PrP 5' UTR mRNA reporter, plate reader; AID 488862, 2010; inhibition, % (concentration not given with the values); actives 0.35% (n = 340,000);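 active = every replicate at 50% or more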;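 note: 0 = median of the neutral control wells; tested in H4 reporter cells; numbers are from one replicate; inactives centre near -14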
# Mtb hypoxia rep: PubChem AID 1159583. M. tuberculosis hypoxia-regulated fluorescent reporter, fluorescence. fluorescence inhibition, % (no concentration beside the values). actives 0.1% (n = 300,000);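 active = 35 to 45% if threefold the growth effect, above 45% if 1.5-fold the growth effect; inactive = the rest, general growth blockers included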;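 note: wells of about 50 µL received 100 nL stock; 0% = vehicle wells and 100% = reference inhibitor wells; whole bacteria with a GFP reporter of the hypoxia response; strong numbers were not always called active; many hits fall short of the cut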
# ugtP null kill: growth inhibition of ugtP-null S. aureus, primary screen, RN4220 ugtP deletion, OD600; 16 h; some inactives read as strong as hits; growth inhibition, % (concentration not given with the values); actives 0.54% (n = 330,000);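 active = z-score under -3 and OD600 up to 0.15 on both plates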;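 note: plate controls were untreated wells for no effect and antibiotic for full effect; wells of about 80 µL received 100 nL stock; the first replicate is given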
# Mtb hypoxia rep growth: further read-out of Mtb hypoxia rep, marked with its call; growth inhibition, %; measured here: M. tuberculosis growth (absorbance);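 0% = vehicle and 100% = reference antibiotic; read after six days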
# Active calls of the source: *; ? = inconclusive; . = not tested or not shown.
1: CN1/C(=C/c2cccc[n+]2CCO)Sc2ccccc21
2: O=C(CSc1nc2ccccc2c(=O)n1NC(=O)Cc1ccccc1)NCc1ccco1
3: CCc1ccc(C(=O)OCC(=O)NCC(F)(F)F)cc1
4: C[C@@H]1CC[C@@]2(OC1)O[C@H]1C[C@H]3[C@@H]4CC=C5C[C@@H](O)[C@H](O)C[C@]5(C)C4CC[C@]3(C)[C@H]1[C@@H]2C (stereo partly drawn)
5: O=[N+]([O-])/C(=C\Nc1ccc(F)cc1F)S(=O)(=O)c1ccccc1
6: C=CCSc1nc(C)c2cc(C)cc(C)c2n1
7: Cc1ccc(C(=O)Nc2cccc(NC(=O)c3ccc(C)o3)n2)o1
8: COc1c(C(=O)NNC(=O)c2ccccc2)csc1Br
entry no.	1	2	3	4	5	6	7	8
Sa RN4220 lethal	-4.9	4.1	4.4	-7.8	3.1	7.5	3.9	4.1
BJeLR lethal	1	0	-3	4	5	0	-6	-9
Autofluor counter	4024	?	3064	3839	3563	3856	3128	5129
PrP UTR inh	4	-4	-17	9	-25	-9	-26	-77
Mtb hypoxia rep	-1	-10	14	11	17	.	-5	15
Mtb hypoxia rep growth	9	-3	7	-2	2	.	9	0
ugtP null kill	-1	-5	-4	18	-3	19	-4	-2

9: Cc1ccccc1N(CC(=O)NC(C)(C)C)C(=O)CS(=O)CC(=O)Nc1ccc2c(c1)OCO2 (stereo not drawn)
10: COc1ccc(C2NC(=S)NC(O)(C(F)(F)F)C2C(=O)c2cccs2)cc1 (stereo not drawn)
11: CC(C(=O)NC1(C#N)CCCCC1)N(C)CC(=O)Nc1ccc(Cl)c(Cl)c1 (stereo not drawn)
12: CC(=O)Nc1ccc2c(c1)Cc1ccc(Cl)cc1-2
13: Cn1c(=O)n(C)c2cc(/C=N/NC(N)=S)ccc21
14: O=C(NCN1CCOCC1)c1cnccn1
15: O=C(CCCc1ccccc1)NCc1ccc(F)cc1
16: CN(c1ccccc1C(=O)Nc1cccnc1)S(C)(=O)=O
entry no.	9	10	11	12	13	14	15	16
Sa RN4220 lethal	3.8	8.7	0.1	-7.9	.	5.5	0.5	2.2
BJeLR lethal	2	-11	.	.	2	7	8	.
Autofluor counter	4526	9323	3754	3770	3691	4846	2293	8108
PrP UTR inh	-17	-21	-7	-22	-5	-28	-2	-6
Mtb hypoxia rep	5	-2	8	-22	.	7	4	2
Mtb hypoxia rep growth	7	-4	-5	14	.	-1	7	-1
ugtP null kill	-1	12	-13	-16	.	-6	10	4

17: C=CCn1c(SCC(=O)c2c(N)n(C)c(=O)n(C)c2=O)nc2sc(C)c(C)c2c1=O
18: CCC1(c2ccc(F)cc2)NC(=O)N(CC(=O)Nc2ccccc2Cl)C1=O (stereo not drawn)
19: CC(C)NC(=S)N1CCN(S(=O)(=O)c2cccc(C(F)(F)F)c2)CC1
20: COC(=O)c1cc2occc2n1Cc1cccc(C)c1
21: C[C@@H](NC(=O)[C@@H]1Cc2ccccc2CN1C(=O)OC(C)(C)C)C(=O)NCC1CCCO1 (stereo partly drawn)
22: CC(C)OP(=O)(OC(C)C)C(O)c1cccc([N+](=O)[O-])c1 (stereo not drawn)
23: CC(=O)OC1CC(c2cc(C(C)(C)C)c(O)c(C(C)(C)C)c2)=NO1 (stereo not drawn)
24: CCOC(=O)N1CCN(c2cc(=O)n(-c3cccc(Br)c3)c(=O)[nH]2)CC1
entry no.	17	18	19	20	21	22	23	24
Sa RN4220 lethal	0.0	1.2	6.2	-2.6	-4.6	2.9	-0.7	0.3
BJeLR lethal	-4	-25	-6	-2	7	11	-5	9
Autofluor counter	11057	3526	1823	2756	5569	4419	.	5231
PrP UTR inh	-8	-22	5	-12	-8	-37	-13	-18
Mtb hypoxia rep	-8	16	-5	-5	-4	14	1	-3
Mtb hypoxia rep growth	-4	5	-1	-6	8	6	8	7
ugtP null kill	-5	5	1	37	-6	10	5	-8

# Next part; it opens with the four that closed the last part.
21: C[C@@H](NC(=O)[C@@H]1Cc2ccccc2CN1C(=O)OC(C)(C)C)C(=O)NCC1CCCO1 (stereo partly drawn)
22: CC(C)OP(=O)(OC(C)C)C(O)c1cccc([N+](=O)[O-])c1 (stereo not drawn)
23: CC(=O)OC1CC(c2cc(C(C)(C)C)c(O)c(C(C)(C)C)c2)=NO1 (stereo not drawn)
24: CCOC(=O)N1CCN(c2cc(=O)n(-c3cccc(Br)c3)c(=O)[nH]2)CC1
25: Cc1cc2nnc(SCC(=O)NCC3CCCO3)n2c2ccccc12 (stereo not drawn)
26: COc1ccc(-c2cc(C(=O)O)sc2C)cc1
27: Cc1cc(=O)n2nc(N3CCC(C(=O)NCc4ccc(F)cc4)CC3)sc2n1
28: Cc1cc(Nc2cccc(F)c2)n2nc(C)nc2n1
29: COc1cccc(N2C(=NC(=O)C3CCCO3)SC3CS(=O)(=O)CC32)c1 (stereo not drawn)
30: COc1ccc(N2CCN(C(=O)COC(=O)CNC(=O)c3ccc(Cl)cc3Cl)CC2)cc1
31: COc1ccc(-c2c(C3=CCCCC3)oc3ccc(-c4ccc5c(c4)OCO5)cc23)cn1
32: CN(C)S(=O)(=O)c1cccc(NC(=S)NN=CC(c2ccccc2)c2ccccc2)c1
entry no.	21	22	23	24	25	26	27	28	29	30	31	32
Sa RN4220 lethal	-4.6	2.9	-0.7	0.3	4.9	8.3	2.0	1.7	1.4	0.6	-1.6	4.5
BJeLR lethal	7	11	-5	9	-4	-5	-24	2	2	9	8	.
Autofluor counter	5569	4419	.	5231	4722	4427	5773	5678	5622	4976	4194	.
PrP UTR inh	-8	-37	-13	-18	-29	-4	-10	5	2	-23	-6	.
Mtb hypoxia rep	-4	14	1	-3	8	1	-8	.	-4	-8	0	11
Mtb hypoxia rep growth	8	6	8	7	9	12	-3	.	8	6	1	2
ugtP null kill	-6	10	5	-8	-11	0	7	4	3	8	17	56

33: C/C(C=NNC(=O)c1cc(-c2cccnc2)nc2c1c(C)nn2-c1ccccc1)=C\c1ccccc1
34: O=C(NN=Cc1c(F)cccc1Cl)C(=O)N1CCCCCC1
35: CCC(NC(=O)c1ccccc1NC(=O)c1ccccc1)C(=O)NNC(=O)c1cccnc1 (stereo not drawn)
36: O=[N+]([O-])c1cccc(N=Cc2ccccc2)c1
37: Cn1c(SCC(=O)NCc2ccc3c(c2)OCO3)nnc1C1COc2ccccc2O1 (stereo not drawn)
38: Cc1nc2ccccc2c(=O)n1NC(=O)c1cccc(Cl)c1
39: O=C(Nc1cccc(NC(=O)c2ccc(-c3cccc(Br)c3)o2)c1)c1ccco1
40: Cc1ccc(-c2cc(-c3ccc4c(c3)OCO4)c(C#N)c(N)n2)o1
entry no.	33	34	35	36	37	38	39	40
Sa RN4220 lethal	-0.8	19	-1.7	4.0	9.9	3.1	52	9.1
BJeLR lethal	.	.	9	.	0	-2	5	-14
Autofluor counter	.	.	4174	4249	3433	3817	4449	9215
PrP UTR inh	.	.	-24	-17	-9	-30	-45	-13
Mtb hypoxia rep	2	0	-1	5	.	5	-2	15
Mtb hypoxia rep growth	6	-13	11	8	.	4	6	12
ugtP null kill	-18	-7	-6	7	7	-2	60	-16

41: O=C(O)c1ccc(/C=N\Nc2ccccn2)cc1
42: CCOc1cccc(C(=O)Nc2cccc(C(=O)NC(C)(C)C)c2)c1
43: Cc1cccc(NC(=O)c2ccccc2OCC(=O)c2ccccc2)c1
44: CCOCCc1nnc(NC(=O)c2cccc(F)c2)s1
45: C/C(CC(=O)N1CCCC1)=N\NC(=O)c1cc2ccccc2cc1O
46: C/C(=N\NC(=O)c1cccc(S(=O)(=O)N2CCOCC2)c1)c1ccc(C#N)cc1
47: CCN(CC(=O)NCc1ccc(Cl)cc1)C(=O)c1ccc(C#N)cc1
48: CC1CCN(Cc2nnc(-c3cccc(Br)c3)o2)CC1
entry no.	41	42	43	44	45	46	47	48
Sa RN4220 lethal	.	1.7	-1.1	1.6	.	.	3.9	1.7
BJeLR lethal	18	-11	0	1	-6	-1	-2	2
Autofluor counter	4498	2110	4471	2867	3131	6138	3901	4182
PrP UTR inh	-50	-9	-11	-28	3	-23	-13	-4
Mtb hypoxia rep	.	14	2	.	.	.	8	.
Mtb hypoxia rep growth	.	1	7	.	.	.	5	.
ugtP null kill	.	-1	-4	-3	.	.	5	6

49: O=C(Nc1ccccc1Cl)c1ccn[nH]1
50: CCCn1c(CN2CCCCC2C)nc2c1c(=O)n(C)c(=O)n2C (stereo not drawn)
51: COc1ccc(CCN=C(N)NS(=O)(=O)c2ccc(C)cc2)cc1OC
52: CCC(C)[C@H](NC(=O)[C@@H]1CSC2c3ccccc3C(=O)N21)C(=O)NC1CCCC1 (stereo partly drawn)
53: CCN(CC(=O)Nc1ccc(OC)cc1)C(=O)c1ccc2c(=O)n3c(nc2c1)CCC3
54: Cn1cnnc1SCC(=O)Nc1ccc(F)cc1
55: CN(C)Cc1c(O)ccc2c3c(c(=O)oc12)CCCCC3
56: Cc1ccccc1NC(=O)C1C2CCCCC21 (stereo not drawn)
entry no.	49	50	51	52	53	54	55	56
Sa RN4220 lethal	-4.1	-11	-1.2	1.9	2.3	-0.8	-15	2.3
BJeLR lethal	-3	-2	-1	-2	.	3	-4	6
Autofluor counter	2877	5665	2548	5431	8493	4499	3031	3976
PrP UTR inh	-47	-4	-12	-22	-12	-47	-17	-17
Mtb hypoxia rep	7	3	-2	10	11	8	-1	1
Mtb hypoxia rep growth	14	6	5	11	-4	5	-1	6
ugtP null kill	-9	-1	9	9	0	15	5	6

# Profiles as entered above. Order of screens: Sa RN4220 lethal | BJeLR lethal | Autofluor counter | PrP UTR inh | Mtb hypoxia rep | Mtb hypoxia rep growth | ugtP null kill
# COc1ccc(CCN=C(N)NS(=O)(=O)c2ccc(C)cc2)cc1OC is entered as -1.2 | -1 | 2548 | -12 | -2 | 5 | 9
# CCC(C)[C@H](NC(=O)[C@@H]1CSC2c3ccccc3C(=O)N21)C(=O)NC1CCCC1 (stereo partly drawn) is entered as 1.9 | -2 | 5431 | -22 | 10 | 11 | 9

# Other records follow:
57: CCOC(=O)c1nn(-c2ccc(Cl)cc2)c2nnc(Cc3ccc(C)cc3)c(=O)n12
58: CNC(=S)N=Nc1c(O)[nH]c2ccccc12
59: CCC(C)NC(=O)Nc1ccc2c(c1)N(C)C(=O)c1ccccc1S2 (stereo not drawn)
60: CCOC(=O)CCCCC(=O)c1[nH]c(=O)[nH]c1CSc1nc(C)cc(C)n1
61: COc1ccc2[nH]c(C)c(CCNC(=S)Nc3ccccc3OC)c2c1
62: COc1cc2c(cc1OC)C(C(=O)N1CCN(c3ccccn3)CC1)C(c1cccs1)N(C)C2=O (stereo not drawn)
63: COc1ccccc1-c1nnc(SCC(=O)NCc2c(C)c(Cl)cc(C(C)C)c2O)o1
64: N/C(Cc1ccc([N+](=O)[O-])cc1)=N\OC(=O)c1ccccc1Br
entry no.	57	58	59	60	61	62	63	64
Sa RN4220 lethal	-4.1	4.0	-3.4	-4.1	5.2	1.4	0.7	.
BJeLR lethal	2	-7	6	4	-2	-1	4	-10
Autofluor counter	9534	9289	16200*	4042	2074	.	10974	9445
PrP UTR inh	-13	-2	-17	-19	6	-9	-23	-20
Mtb hypoxia rep	3	3	-2	.	4	8	10	.
Mtb hypoxia rep growth	3	7	-43	.	6	0	6	.
ugtP null kill	8	-2	-1	-5	-6	3	4	.

65: O=C(CCC1CCCCC1)NCc1cccnc1
66: CNc1cc([N+](=O)[O-])ccc1OCc1ccccc1
67: Cc1[nH]ncc1N=Cc1ccc([N+](=O)[O-])cc1
68: COc1ccc(CN(C(=O)c2cccs2)c2ccccc2)cc1
69: Cc1cc2ncn(C(=O)c3ccc(F)cc3)c2cc1C
70: CCN1CCN(c2ccc(S(=O)(=O)N3CCCCC3)cc2NC(=O)Cc2ccccc2F)CC1
71: O=C(C1=C[C@@H](c2coc3ccccc3c2=O)C[C@@H](OCCCCO)O1)N1CCOCC1
72: CCOC(=O)c1ccc(S(=O)(=O)Nc2ccc(N3CCOCC3)cc2)cc1
73: COc1ccc(Cc2nc3ccc(C(=O)N4C[C@@H](C)O[C@@H](C)C4)cc3o2)cc1OC
74: Cc1occc1C(=O)N/N=C/c1ccc(Br)s1
entry no.	65	66	67	68	69	70	71	72	73	74
Sa RN4220 lethal	2.4	12	-2.5	18	1.4	3.9	.	0.6	4.1	.
BJeLR lethal	-2	2	2	7	-6	17	-10	-9	6	-3
Autofluor counter	3502	3696	2147	4089	3149	5111	4178	3944	5528	2173
PrP UTR inh	-6	-33	-5	-16	11	-19	-7	-10	-45	-68
Mtb hypoxia rep	.	6	-5	8	12	7	.	-4	-8	.
Mtb hypoxia rep growth	.	8	-16	5	1	0	.	-5	6	.
ugtP null kill	3	4	-4	8	-2	-1	.	8	5	.
